Screening results as filed in PubChem BioAssay.
FPR: FPR binders displacing fluorescent formyl peptide, primary screen, U937-FPR cells, fMLFK-FITC, flow cytometry (AID 362); fMet-Leu-Phe receptor (Homo sapiens); U937-FPR cells, fMLFK-FITC displacement, flow cytometry; stronger effect = higher value; test concentration not given here; most inactive calls were filed without a number and no value below 0 was filed; inhibition, %; 4,300 tested, 1% active;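 active means inhibition of labelled peptide binding to the formyl peptide receptor of at least 65%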;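 further: plate controls were buffer control wells for no effect and unlabeled fMLFF blocking peptide for full effect; higher means less cell fluorescence so more probe displaced; part of the set was picked by virtual screening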
The depositor's hits bear a star. An excerpt; count on the stated rates, not on these rows.

`CC1=C(C(=O)OC2CCCCCC2)C(c2ccc([N+](=O)[O-])cc2)NC(=O)N1` (centres undefined) gave FPR inactive.
COc1ccc(OC)c(CN2C(=O)c3ccccc3C2C(=O)NC2CCC(C)CC2)c1 (centres undefined) was read as FPR 11.
C=CCN1C(=O)C2(C(C#N)=C(N)OC3=C2C(=O)CC(C)(C)C3)c2ccccc21 (centres undefined) was read as FPR 7.
Screening COc1ccc(Oc2c(C(F)(F)F)oc3cc(O)ccc3c2=O)cc1 returned FPR 15.
For CC1(C)CC(=O)C2=C(C1)Nc1[nH]n(-c3ccccc3)c(=O)c1C2c1cccs1 (centres undefined) the results were FPR 51.
`CC1CC(C)CN(C(=O)c2ccc(N3CCCC3=O)cc2)C1` (centres undefined) gave FPR inactive.
`CCCS(=O)(=O)N1CCCC(C(=O)N2CCCCC2)C1` (centres undefined) gave FPR inactive.
For COc1ccc(OC)c(C2NC(=O)NC(C)=C2C(=O)OC2CCCCC2)c1 (centres undefined) the results were FPR inactive.
For COc1ccc(OC)c(CNC(=O)c2cn(CC(C)C)c(=O)c3c2c2ccccc2n3C)c1 the results were FPR 11.
For CCCC1=C(C(=O)OCC)C(c2ccc(C)cc2)n2ncnc2N1 (centres undefined) the results were FPR inactive.
CCCC(O)(CCN1CCCCC1)c1ccc(OCC)cc1 (centres undefined) was read as FPR inactive.
CCc1ccc(Oc2c(C(F)(F)F)oc3c(CN4CCCC4)c(O)ccc3c2=O)cc1 was read as FPR inactive.

Reprinted from the results shown, two compounds:
`CC1=C(C(=O)OC2CCCCCC2)C(c2ccc([N+](=O)[O-])cc2)NC(=O)N1` (centres undefined) gave FPR inactive.
COc1ccc(OC)c(CN2C(=O)c3ccccc3C2C(=O)NC2CCC(C)CC2)c1 (centres undefined) was read as FPR 11.

More records:
`COc1ccc(S(=O)(=O)NC(CC(=O)NCc2ccc3c(c2)OCO3)C(C)C)cc1` (centres undefined) gave FPR 8.
Screening CCCCN(C)CCCNC(=O)C1CCC(CNS(=O)(=O)c2ccccc2)CC1 (centres undefined) returned FPR inactive.
For COC(=O)C1C(=O)C2=C(CC1C)NC(C)=C(C(=O)OCc1ccccc1)C2c1cccc(F)c1 (centres undefined) the results were FPR 5.
`CCOC(=O)COc1cc2oc(=O)c3c(c2cc1CC)CCCC3` gave FPR inactive.
Screening CCCCn1c(SCC(=O)Nc2cc(C(F)(F)F)ccc2Cl)nc2ccc(N3CCOCC3)cc2c1=O returned FPR inactive.
For COc1ccc(OC)c(N=CC2=C(O)CC(C)(C)CC2=O)c1 the results were FPR inactive.
`CCN(C(=O)c1cn(CC(C)C)c(=O)c2cc(OC)c(OC)cc12)c1cc(OC)ccc1OC` gave FPR inactive.
Screening COC(=O)C1=C(N)OC2=C(C(=O)CC(C)(C)C2)C1c1ccc(SC)cc1 (centres undefined) returned FPR 8.
Screening CN(CCC#N)C(=O)c1cc2nc(-c3ccc4c(c3)OCO4)cc(C(F)(F)F)n2n1 returned FPR inactive.
`CCOC(=O)CSc1nc2ccsc2c(=O)n1CCCCCC(=O)NCCc1ccc(OC)c(OC)c1` gave FPR inactive.
Screening CCN(CC)c1ccc(NC(=O)C(NS(=O)(=O)c2ccc3c(c2)CCN3C(C)=O)C(C)C)c(C)c1 (centres undefined) returned FPR inactive.
Screening COc1cc(OC)c(N(C)C(=O)c2cn(CC(C)C)c(=O)c3cc(OC)c(OC)cc23)cc1Cl returned FPR inactive.
For CCSCCOC(=O)C1=C(C)NC2=C(C(=O)C(C(=O)OC)C(C)C2)C1c1cc(OC)c(OC)cc1Br (centres undefined) the results were FPR 10.
CCCOCCOC(=O)C1=C(C)NC2=C(C(=O)C(C(=O)OC)C(C)C2)C1c1ccc(F)cc1 (centres undefined) was read as FPR inactive.
Screening CC(=O)Nc1ccc(S(=O)(=O)NCC2CCC(C(=O)NC(C)CCc3ccccc3)CC2)cc1 (centres undefined) returned FPR inactive.
Screening CC1(C)CC(=O)C2=C(C1)OC1=C(C(=O)CC(C)(C)C1)C2c1ccc(O)c([N+](=O)[O-])c1 returned FPR inactive.
Screening CCCOc1ccc(C2C(C(=O)OC3CCCCC3)=C(C)NC3=C2C(=O)CCC3)cc1OC (centres undefined) returned FPR 5.
For COC(=O)CSC1=C(C#N)C(c2ccccc2Cl)C(C(=O)c2cccs2)C(O)(C(F)(F)F)N1 (centres undefined) the results were FPR inactive.
`COC(=O)C1=C(N)OC2=C(C(=O)CC(C)(C)C2)C1c1ccc(C)cc1` (centres undefined) gave FPR 12.
For CCOCCOC(=O)C1=C(C)NC2=C(C(=O)C(C(=O)OC)C(C)C2)C1c1ccc(O)c(OC)c1 (centres undefined) the results were FPR inactive.
`Cc1sc2ncn(CC(=O)N3CCOCC3)c(=O)c2c1S(=O)(=O)N1CCC(C)CC1` gave FPR inactive.
Screening CN1C(=O)NC(c2cccc(F)c2)C2=C1CC(C)(C)CC2=O (centres undefined) returned FPR inactive.
COc1cc(-c2ncnn2-c2sc3c(c2C#N)CCCCC3)cc(OC)c1OC was read as FPR inactive.
Screening COc1ccc(C(=O)COC(=O)C(CC(C)C)N2C(=O)c3ccccc3C2=O)cc1 (centres undefined) returned FPR inactive.
CCN(Cc1c(O)ccc2c3c(c(=O)oc12)CCC3)C1CCCCC1 was read as FPR 1.
CN(C)c1ccc(C2C(C#N)=C(N)OC3=C2C(=O)CC(C)(C)C3)cc1 (centres undefined) was read as FPR 2.
O=C1NC(c2cccc(Oc3ccccc3)c2)C(C(=O)c2ccc(Cl)cc2)C(O)(C(F)(F)F)N1 (centres undefined) was read as FPR 10.
`CCOC(=O)C1=C(C)NC2=C(C(=O)C(C(=O)OC)C(C)C2)C1c1ccc(OC)c(OC)c1` (centres undefined) gave FPR 7.
`COc1ccccc1CNC(=O)C1CCC(CNS(=O)(=O)c2ccc(Br)s2)CC1` (centres undefined) gave FPR inactive.
COc1ccc(CCN2CC(=O)N3CCCC(c4cc(O)ccc4O)=C3C2=O)cc1OC was read as FPR 7.
`COc1cccc(Nc2nc3cc(OC)ccc3nc2NS(=O)(=O)c2ccc(Cl)cc2)c1` gave FPR 8.
For CCC(C)(C(=O)NC1CCCC1)N(C(=O)CNC(C)=O)c1ccc(C)cc1 (centres undefined) the results were FPR 14.
`Cc1cc(N=CC2=C(O)CC(C)(C)CC2=O)no1` gave FPR 10.
Screening CCOC(=O)c1cc2c(=O)n3ccccc3nc2n(CC(C)C)c1=NC(=O)c1cc(OCC)c(OCC)c(OCC)c1 returned FPR inactive.
`CNC1(c2nnnn2CCOC(=O)Nc2ccc(Cl)cc2)CCCC1` gave FPR 12.
`COc1ccc(C2C3=C(CC(C)(C)CC3=O)Nc3ncnn32)c(OC)c1` (centres undefined) gave FPR inactive.
`COc1cc(NC(=O)C(CC(C)C)N2C(=O)c3ccccc3C2=O)c(OC)cc1Cl` (centres undefined) gave FPR 22.
Cc1ccc(C2c3sc(=O)[nH]c3SC3C4CC(C5C(=O)N(C(CC(C)C)C(=O)O)C(=O)C45)C23)cc1 (centres undefined) was read as FPR 20.
`COc1cc2c(C(=O)N3CCN(c4cccc(Cl)c4)CC3)cn(CC(C)C)c(=O)c2cc1OC` gave FPR inactive.
Screening O=C(O)CN1C(=O)C2C3CC(C2C1=O)C1C(c2ccc(Br)cc2)c2sc(=O)[nH]c2SC31 (centres undefined) returned FPR 4.
For CCOC(=O)C1CCC(CN(Cc2cccc(Br)c2)S(=O)(=O)c2cccc(C(F)(F)F)c2)CC1 (centres undefined) the results were FPR inactive.
`CC1CCN(Cc2c(O)ccc3occ(C(=O)c4ccccc4)c23)CC1` gave FPR inactive.
`COCCCNC(=O)c1cc2c(=O)n3cc(C)ccc3nc2n(C2CCCC2)c1=N` gave FPR inactive.
`COc1cc(NC(=O)C23CC4CC(C2)CC(n2cnc([N+](=O)[O-])n2)(C4)C3)cc(OC)c1` gave FPR 1.
For CC(=O)Nc1ccc(S(=O)(=O)NCC2CCC(C(=O)NCCC(C)C)CC2)cc1 (centres undefined) the results were FPR inactive.
`CCCCOC(=O)C(C)Oc1ccc2c(=O)c(-c3ccccc3OC)c(C(F)(F)F)oc2c1` (centres undefined) gave FPR 13.
`CCCOc1ccc(C2C(C(=O)OC(C)C)=C(C)NC3=C2C(=O)C(C(=O)OC)C(C)C3)cc1` (centres undefined) gave FPR inactive.
Screening CCCOc1ccc(C2NC(=O)NC(C)=C2C(=O)OC(C)C(C)(C)C)cc1 (centres undefined) returned FPR inactive.
Screening CCCCCn1c(CN2CCc3ccccc3C2)nc2c1c(=O)n(C)c(=O)n2C returned FPR inactive.
`CCOC(=O)C1=NN(C(=O)c2ccc([N+](=O)[O-])cc2)C(O)(C(C)(C)C)C1` (centres undefined) gave FPR inactive.
`COC(=O)c1sc(S(=O)(=O)NC23CC4CC(CC(C4)C2)C3)c(C(=O)OC)c1C` gave FPR inactive.
Screening O=C(C1CCC(CNS(=O)(=O)c2ccc(Br)s2)CC1)N1CCN(C2CCCCC2)CC1 (centres undefined) returned FPR inactive.
`Cc1c(CCC(C)C)c(N2CCOCC2)n2c(nc3ccccc32)c1C#N` gave FPR inactive.
For CCCOc1ccc(C2C(C(=O)OCCSCC)=C(C)NC3=C2C(=O)C(C(=O)OC)C(C)C3)cc1 (centres undefined) the results were FPR 4.
CCOC(=O)c1c(NC(=O)C2C3C=CC(C3)C2C(=O)O)sc2c1CC(C)CC2 (centres undefined) was read as FPR 17.
`COc1ccc(C(=O)Oc2ccc3c(C(F)(F)F)cc(=O)oc3c2C)cc1OC` gave FPR inactive.
For CCCC(O)(CCN(C)C)c1ccc(OC)cc1 (centres undefined) the results were FPR inactive.
CCOC(=O)C1CCN(CC(=O)N2CCCc3c2c(=O)oc2ccc(OC(C)=O)cc32)CC1 was read as FPR 15.
`Cc1sc2ncn(CC(=O)N3CCC(C#N)CC3)c(=O)c2c1S(=O)(=O)N1CCC(C)CC1` gave FPR inactive.
For COc1ccccc1C1(CCNC(=O)c2ccccc2C(=O)O)CCOC(C)(C)C1 (centres undefined) the results were FPR 21.

Ordered by number of heavy atoms (highest first): 18 of the compounds above
Screening CCOC(=O)c1cc2c(=O)n3ccccc3nc2n(CC(C)C)c1=NC(=O)c1cc(OCC)c(OCC)c(OCC)c1 returned FPR inactive.
Screening CCCCn1c(SCC(=O)Nc2cc(C(F)(F)F)ccc2Cl)nc2ccc(N3CCOCC3)cc2c1=O returned FPR inactive.
For CCSCCOC(=O)C1=C(C)NC2=C(C(=O)C(C(=O)OC)C(C)C2)C1c1cc(OC)c(OC)cc1Br (centres undefined) the results were FPR 10.
For CCCOc1ccc(C2C(C(=O)OCCSCC)=C(C)NC3=C2C(=O)C(C(=O)OC)C(C)C3)cc1 (centres undefined) the results were FPR 4.
For CCOCCOC(=O)C1=C(C)NC2=C(C(=O)C(C(=O)OC)C(C)C2)C1c1ccc(O)c(OC)c1 (centres undefined) the results were FPR inactive.
Screening CCCOc1ccc(C2C(C(=O)OC3CCCCC3)=C(C)NC3=C2C(=O)CCC3)cc1OC (centres undefined) returned FPR 5.
`Cc1sc2ncn(CC(=O)N3CCC(C#N)CC3)c(=O)c2c1S(=O)(=O)N1CCC(C)CC1` gave FPR inactive.
Screening O=C(O)CN1C(=O)C2C3CC(C2C1=O)C1C(c2ccc(Br)cc2)c2sc(=O)[nH]c2SC31 (centres undefined) returned FPR 4.
`COCCCNC(=O)c1cc2c(=O)n3cc(C)ccc3nc2n(C2CCCC2)c1=N` gave FPR inactive.
Screening CCCCCn1c(CN2CCc3ccccc3C2)nc2c1c(=O)n(C)c(=O)n2C returned FPR inactive.
`COC(=O)c1sc(S(=O)(=O)NC23CC4CC(CC(C4)C2)C3)c(C(=O)OC)c1C` gave FPR inactive.
`CC1=C(C(=O)OC2CCCCCC2)C(c2ccc([N+](=O)[O-])cc2)NC(=O)N1` (centres undefined) gave FPR inactive.
`CC1CCN(Cc2c(O)ccc3occ(C(=O)c4ccccc4)c23)CC1` gave FPR inactive.
`CNC1(c2nnnn2CCOC(=O)Nc2ccc(Cl)cc2)CCCC1` gave FPR 12.
`CCOC(=O)COc1cc2oc(=O)c3c(c2cc1CC)CCCC3` gave FPR inactive.
For COc1ccc(OC)c(N=CC2=C(O)CC(C)(C)CC2=O)c1 the results were FPR inactive.
`CCCS(=O)(=O)N1CCCC(C(=O)N2CCCCC2)C1` (centres undefined) gave FPR inactive.
`Cc1cc(N=CC2=C(O)CC(C)(C)CC2=O)no1` gave FPR 10.

(next part)
Screening CCC(Sc1nc2ccsc2c(=O)n1C1CCCCC1)C(=O)Nc1ccc2c(c1)OCO2 (centres undefined) returned FPR inactive.
COCCn1c(CN2CC(C)CC(C)C2)nc2c1c(=O)n(C)c(=O)n2C (centres undefined) was read as FPR inactive.
For O=C(CNC(=O)c1ccccc1)NC1(C(=O)NC2CCCC2)CCCCC1 the results were FPR inactive.
CC(C)Cn1cc(C(=O)NC2CCCC2)c2c3ccccc3n(C)c2c1=O was read as FPR inactive.
`COc1ccc(/C=C2\CCC/C(=C\c3ccc(OC)c(OC)c3)C2=O)cc1OC` gave FPR 27.
Screening CCSCCOC(=O)C1=C(C)NC2=C(C(=O)C(C(=O)OC)C(C)C2)C1c1ccc(Cl)cc1 (centres undefined) returned FPR 7.
CCOc1ccc(/C=C2/CC(C)C/C(=C\c3ccc(OCC)c(OC)c3)C2=O)cc1OC (centres undefined) was read as FPR inactive.
`CC(=O)N1CCc2cc(S(=O)(=O)NC(C(=O)Nc3ccc4c(c3)OCCO4)C(C)C)ccc21` (centres undefined) gave FPR inactive.

Random excerpt: two entries already listed, in no set order.
Screening O=C(C1CCC(CNS(=O)(=O)c2ccc(Br)s2)CC1)N1CCN(C2CCCCC2)CC1 (centres undefined) returned FPR inactive.
For CCOC(=O)C1CCC(CN(Cc2cccc(Br)c2)S(=O)(=O)c2cccc(C(F)(F)F)c2)CC1 (centres undefined) the results were FPR inactive.
